Screening results deposited in PubChem by several laboratories.
Sa ugtP lethal = growth inhibition of ugtP-null S. aureus, primary screen, RN4220 ugtP deletion, OD600 | 16 h; some inactives read as strong as hits | AID 1259309, 2017 | growth inhibition, % (no concentration beside the values) | actives 0.54% (n = 330,000);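 active = z-score under -3 and OD600 up to 0.15 on both plates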;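 note: plate controls were untreated wells for no effect and antibiotic for full effect; wells of about 80 µL received 100 nL stock; the first replicate is given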
Sa RN4220 lethal = growth inhibition of S. aureus RN4220, primary screen, OD600; 16 h; inhibition, % (no concentration beside the values); actives 0.33% (n = 330,000); AID 1259311, 2017;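 active = z-score of -3 or lower and OD600 up to 0.18 on both plates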;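 note: plate controls were untreated cells for no effect and reference antibiotic for full effect; stock transfer was 100 nL into about 80 µL; one replicate is shown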
BJeLR viability = MLPCN primary cell-based screen for lethality selective to Ras in HRASV12 cells. BJeLR (HRASV12) viability, CellTiter-Glo ATP luminescence, 48 h; reference of the scale not given here. inhibition, % (test concentration not listed). actives 0.17% (n = 300,000);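 active = replicate mean above 50%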;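 note: 50 nL library stock added to about 25 µL; numbers are from one replicate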
PrP 5UTR inh = inhibition of PrP 5' UTR reporter expression; AID 488862, 2010; actives 0.35% (n = 340,000); inhibition, % (concentration not given with the values); cell-based PrP 5' UTR mRNA reporter, plate reader;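 active = every replicate at 50% or more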;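 note: 0 = median of the neutral control wells; tested in H4 reporter cells; numbers are from one replicate; inactives centre near -14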
Mtb hypoxia rep = PubChem AID 1159583; M. tuberculosis hypoxia-regulated fluorescent reporter, fluorescence; fluorescence inhibition, % (concentration not given with the values); actives 0.1% (n = 300,000);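 active = 35 to 45% if threefold the growth effect, above 45% if 1.5-fold the growth effect; inactive = the rest, general growth blockers included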;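 note: wells of about 50 µL received 100 nL stock; 0% = vehicle wells and 100% = reference inhibitor wells; whole bacteria with a GFP reporter of the hypoxia response; strong numbers were not always called active; many hits fall short of the cut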
Autofluor counter = flagged as autofluorescent in microsphere protease counterscreen | compound autofluorescence counterscreen, microsphere flow cytometry; active compounds read high | fluorescence intensity (test concentration not listed) | actives 3.1% (n = 360,000);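 active = at least 3 SD above the mean of all compounds, about 16000 in these data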;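 note: 100 nL of 1 mM stock went into each well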
Mtb hypoxia rep growth = recorded beside Mtb hypoxia rep, whose call it bears; growth inhibition, %; measured here: M. tuberculosis growth (absorbance);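 0% = vehicle and 100% = reference antibiotic; read after six days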
The depositor's hits bear a star; x = not tested or not shown.

Every second line gives: Sa ugtP lethal	Sa RN4220 lethal	BJeLR viability	PrP 5UTR inh	Mtb hypoxia rep	Mtb hypoxia rep growth	Autofluor counter
[1] O=C(O)c1cc(NN=Nc2cccc(S(=O)(=O)O)c2)cc([N+](=O)[O-])c1
 : 4	3.7	-6	-13	1	7	3570
[2] CC(CC(=O)Nc1nnc(C(C)(C)C)s1)c1ccccc1 (configuration not stated)
 : 2	3.7	12	-18	-9	0	3221
[3] Cc1ccc(S(=O)(=O)N(C)c2ccc3sc(C)nc3c2)cc1
 : 4	5.4	1	-34	-4	8	4272
[4] CCOc1ccccc1N1Cc2ccccc2C1
 : -4	-2.6	28	-28	x	x	x
[5] Cc1ccc(NCc2nc3ccccc3n2C)c(C)c1
 : 5	0.7	5	0	12	1	3912
[6] O=C(O)c1cccc(S(=O)(=O)NCC2COc3ccccc3O2)c1 (configuration not stated)
 : 2	0.0	x	-20	-2	-1	3960
[7] Cc1ccc(CN2CCN(Cc3cnc(N4CCOCC4)s3)CC2CCO)o1 (configuration not stated)
 : 11	5.6	-2	-7	5	-2	2329
[8] CCOC(=O)N1CCN(C2=C(NS(=O)(=O)c3ccc(NC(C)=O)cc3)C(=O)c3ccccc3C2=O)CC1
 : 6	16	-1	-15	-3	-3	4380
[9] O=C(Cn1nc(C(=O)O)c2ccccc2c1=O)Nc1cc(Cl)cc(Cl)c1
 : -11	-5.9	-6	12	-4	-5	4675
[10] COc1cccc(C(=O)NCC(=O)N/N=C/c2ccc3c(c2)OCO3)c1
 : x	x	-3	-43	x	x	3998
[11] O=[N+]([O-])c1cccc(S(=O)(=O)N2CCN(c3ccccn3)CC2)c1
 : 16	2.2	-3	-1	-5	0	3078
[12] COc1ccc(CCNC(=O)CN(c2ccc(OC)c(OC)c2)S(=O)(=O)c2ccccc2)cc1OC
 : 13	5.7	-1	-6	-4	-3	4736
[13] COc1ccc(-c2csc3nc(-c4ccc(C)cc4)oc(=O)c23)cc1OC
 : -2	4.4	11	-24	-1	1	2511
[14] COc1ccccc1N1CCN(C(=O)COc2cc(C)cc(C)c2)CC1
 : 3	7.2	-2	-23	12	8	4554
[15] CCCCN(C(=O)CCCSc1nc2ccccc2[nH]1)c1c(N)n(Cc2ccccc2)c(=O)[nH]c1=O
 : 2	0.3	-11	-20	-8	-9	4549
[16] CC1=C(C(=O)OCC2CCCO2)C(c2coc3ccccc3c2=O)C2=C(CCCC2=O)N1 (configuration not stated)
 : 5	5.5	1	-7	12	5	4308
[17] COc1cc2c(cc1OC)-c1c(OC)c(OC)cc3c1C(C2)[N+](C)(C)CC3 (configuration not stated)
 : 27	25	x	x	-1	-6	x
[18] CSCCC(NS(=O)(=O)c1ccc2c(c1)oc(=O)n2C)C(=O)NCc1ccccc1 (configuration not stated)
 : -3	1.0	0	-15	6	-6	4490
[19] O=c1c2ccccc2nc(SCc2cn3ccsc3n2)n1-c1ccccc1
 : -7	-6.7	1	-12	x	x	5329
[20] COc1ccc(-c2cc(C(=O)NC(C)c3ccccn3)c3ccccc3n2)cc1OC (configuration not stated)
 : 3	-1.7	x	-24	9	6	x

The last two records of the section above are carried over, then new ones follow.
Every second line gives: Sa ugtP lethal	Sa RN4220 lethal	BJeLR viability	PrP 5UTR inh	Mtb hypoxia rep	Mtb hypoxia rep growth	Autofluor counter
[19] O=c1c2ccccc2nc(SCc2cn3ccsc3n2)n1-c1ccccc1
 : -7	-6.7	1	-12	x	x	5329
[20] COc1ccc(-c2cc(C(=O)NC(C)c3ccccn3)c3ccccc3n2)cc1OC (configuration not stated)
 : 3	-1.7	x	-24	9	6	x
[21] CCCCn1nc(C(=O)N(CCOC)c2c(N)n(CCCC)c(=O)[nH]c2=O)c2ccccc2c1=O
 : 9	8.2	x	-3	7	7	3352
[22] O=S(=O)(NC(=S)NC1CCCCC1)c1cccs1
 : -1	1.4	-9	-20	-11	0	4742
[23] COc1ccccc1OCc1ccc(C(=O)NC(C)(C)C)o1
 : -6	4.0	1	-10	11	16	2654
[24] CCC(=O)Nc1ccc2c(c1)C(=O)c1ccccc1C2=O
 : -3	13	7	x	-2	6	8776
[25] CCc1noc(C)c1C(=O)NCCc1ccc(Cl)cc1
 : 3	1.2	0	-25	3	1	6171
[26] CC(CCc1ccccc1)NC(=O)CNC(=O)c1cccs1 (configuration not stated)
 : -5	-5.3	-5	-8	1	6	5301
[27] CCC(=O)Nc1cccc(NC(=S)NC(=O)c2ccc(C)cc2)c1
 : 23	1.8	22	-147	-1	7	2104
[28] COc1ccc2cc3cc(C(=O)NCCN4CCc5ccccc5C4)oc3nc2c1
 : 44	0.1	9	-35	x	x	3440
[29] Cc1[nH]nc2nc(SCC(=O)NCC3CCCO3)n(-c3ccc(Br)cc3)c(=N)c12 (configuration not stated)
 : -8	3.7	8	0	x	x	2638
[30] CC1(C)CC(NC2C3CC4CC(C3)CC2C4)CC(C)(C)N1 (configuration not stated)
 : 4	3.7	24	-18	6	6	4566
[31] Cc1sc2ncn(CC(=O)N3CCC(C(N)=O)CC3)c(=O)c2c1S(=O)(=O)N1CCOCC1
 : 1	0.9	11	-5	2	-4	3367
[32] NS(=O)(=O)c1ccc(NC(=O)c2ccc(Cl)c(S(=O)(=O)NCc3ccco3)c2)cc1
 : 3	-1.8	x	-16	22*	62*	3950
[33] COc1ccccc1Cn1nnc2c(=O)[nH]c(C3CCN(C(=O)c4ccc(C)cc4)CC3)nc21
 : 5	-3.9	-13	-23	-2	6	3291
[34] O=S(=O)(NCc1cc(-c2ccccc2)no1)c1ccc(Cl)cc1
 : -5	8.8	-8	-15	18	18	4419
[35] COc1ccc(N(C(=O)c2ccc(C)cc2)S(=O)(=O)c2cccs2)cc1
 : 26	-1.0	-2	-6	0	0	2374
[36] Cc1c(C(=O)Nc2ccc(Cl)cc2)c2ccccn2c1C(=O)c1ccc([N+](=O)[O-])cc1
 : -20	-2.6	-11	1	3	8	7331
[37] O=[N+]([O-])c1ccc2nc(/C=C/c3ccc(Cl)cc3)[nH]c2c1
 : 31	40	5	-54	6	4	12285
[38] CC(C)C(NS(=O)(=O)c1cccc2nsnc12)C(=O)N1CCc2ccccc2C1 (configuration not stated)
 : 2	3.2	1	-17	2	-2	x
[39] C=CCn1c(-c2ccccc2OC)n[nH]c1=S
 : -1	4.1	-6	-10	9	10	2145
[40] O=C(NCc1ccco1)/C(=C/C=C/c1ccccc1)NC(=O)c1ccco1
 : 5	2.4	4	-24	7	-5	4682

Continuation.
Every second line gives: Sa ugtP lethal	Sa RN4220 lethal	BJeLR viability	PrP 5UTR inh	Mtb hypoxia rep	Mtb hypoxia rep growth	Autofluor counter
[41] COC(=O)COc1cccc(C=NNC(=O)CCSc2ccccc2)c1
 : -8	-6.1	x	x	9	2	x
[42] CCCn1c(=O)c(C(=O)NCc2ccncc2)c(O)c2ccccc21
 : -3	5.7	-7	-10	2	4	2412
[43] COc1cc2c(cc1OC)C(C)N(C(=O)c1cc3c(s1)-c1c(C)cccc1OC3)CC2 (configuration not stated)
 : 6	10	-10	-39	x	x	5792
[44] N#CC1=C(N)Nc2ncnn2C1c1ccc(F)cc1 (configuration not stated)
 : 4	3.9	3	-18	12	7	2306
[45] COc1ccc(CCNC(=O)C2(C)CCC(=O)N2Cc2ccc3c(c2)OCO3)cc1OC (configuration not stated)
 : 8	1.7	9	-12	12	3	5898
[46] NNC(=O)CCc1ccc(S(=O)(=O)N2CCOCC2)cc1
 : 0	3.5	-2	-16	-4	-1	4648
[47] c1ccc(OCCOc2ncnc3sccc23)cc1
 : 11	-1.9	1	-58	4	0	5141
[48] COc1ccccc1N1CCN(C(=O)C(=O)NN=Cc2cccc(O)c2)CC1
 : 3	4.1	x	x	2	1	x
[49] Cc1nn(-c2ccc(N3CCCCC3)nn2)c(C)c1CCC(=O)Nc1ccc(F)cc1
 : 7	-1.8	-12	-27	-1	7	5257
[50] O=S(=O)(NCc1ccccn1)c1ccc(F)cc1
 : -4	-1.5	8	-26	-4	-4	11478
[51] O=C1CSC2(C(=O)N3CCCc4cccc2c43)N1c1cccc(C(F)(F)F)c1 (configuration not stated)
 : -6	2.2	-3	-34	10	5	11342
[52] Cc1ccc(C(=O)Nc2cccc(-c3cnc4ccccc4n3)c2)cc1
 : 3	2.1	1	-19	10	5	5719
[53] O=C1N(c2cccc3ccccc23)C(c2ccccc2)N2CCCN12 (configuration not stated)
 : 6	4.0	0	-10	-5	2	10411
[54] CC(=O)Oc1ccc(Cl)cc1/C=C/c1ccc2ccccc2n1
 : 21	-15	-9	-168	6	1	2604
[55] CC(C)Cc1cc(C(=O)N2CCCC(C(=O)c3cc(F)ccc3F)C2)n(C)n1 (configuration not stated)
 : 19	2.5	-1	-6	-1	4	5631
[56] CCN(CC)S(=O)(=O)c1ccc(OCCNS(C)(=O)=O)cc1
 : -3	0.1	1	1	13	-2	4519
[57] Cc1cc(C)nc(NN=C2CCCC2)n1
 : -14	1.4	-8	-16	14	1	2514
[58] CCc1cc(C(c2ccc(F)cc2)N2CCOCC2)c(NC(=O)c2ccccc2)s1 (configuration not stated)
 : 2	-11	-7	28	-7	-3	2491
[59] CCOC(=O)c1cnc2c(C)cc(Cl)cc2c1N1CCN(C)CC1
 : -5	-4.8	-8	-48	17	8	2969
[60] C(=C\c1ccccn1)/c1ccncc1
 : 0	2.8	2	-8	11	5	3748

Next part
Every second line gives: Sa ugtP lethal	Sa RN4220 lethal	BJeLR viability	PrP 5UTR inh	Mtb hypoxia rep	Mtb hypoxia rep growth	Autofluor counter
[61] O=C1C=C(N2CCCCC2)c2ccccc2C1=O
 : 17	18	-1	x	0	-5	3679
[62] CC(C)CC(=O)Nc1ccccc1N1CCN(C(=O)c2ccccc2)CC1
 : 8	3.3	-3	-3	x	x	3824
[63] CC(=O)Nc1ccc2c(c1)C(=O)N(C1CCCCC1)C2=O
 : 3	3.0	-4	-20	x	x	2687
[64] O=C(Cc1ccccc1)Nc1ccc(C(=O)Nc2ccc(O)cc2)cc1
 : -2	3.3	2	-7	5	-1	5128
[65] c1ccn2c(SCc3cn4ccsc4n3)nnc2c1
 : 0	3.5	-6	-50	15	9	3993

In the list so far, these have a Cl atom.
Every second line gives: Sa ugtP lethal	Sa RN4220 lethal	BJeLR viability	PrP 5UTR inh	Mtb hypoxia rep	Mtb hypoxia rep growth	Autofluor counter
[9] O=C(Cn1nc(C(=O)O)c2ccccc2c1=O)Nc1cc(Cl)cc(Cl)c1
 : -11	-5.9	-6	12	-4	-5	4675
[25] CCc1noc(C)c1C(=O)NCCc1ccc(Cl)cc1
 : 3	1.2	0	-25	3	1	6171
[32] NS(=O)(=O)c1ccc(NC(=O)c2ccc(Cl)c(S(=O)(=O)NCc3ccco3)c2)cc1
 : 3	-1.8	x	-16	22*	62*	3950
[34] O=S(=O)(NCc1cc(-c2ccccc2)no1)c1ccc(Cl)cc1
 : -5	8.8	-8	-15	18	18	4419
[36] Cc1c(C(=O)Nc2ccc(Cl)cc2)c2ccccn2c1C(=O)c1ccc([N+](=O)[O-])cc1
 : -20	-2.6	-11	1	3	8	7331
[37] O=[N+]([O-])c1ccc2nc(/C=C/c3ccc(Cl)cc3)[nH]c2c1
 : 31	40	5	-54	6	4	12285
[54] CC(=O)Oc1ccc(Cl)cc1/C=C/c1ccc2ccccc2n1
 : 21	-15	-9	-168	6	1	2604
[59] CCOC(=O)c1cnc2c(C)cc(Cl)cc2c1N1CCN(C)CC1
 : -5	-4.8	-8	-48	17	8	2969
